Screening data from PubChem.
ClpP mod – qHTS Assay for Activators of ClpP. ATP-dependent Clp protease proteolytic subunit (Bacillus subtilis (strain 168)), P80244. Potency, µM (highest dose often 57.5 µM), without a hit: at the top dose activity change, negative = active. AID 651965, 2013. 340,000 compounds, 1.9% hits. purified B. subtilis ClpP, FRET peptide cleavage, 20 min; active = well fitted falling curve with a large enough effect; inconclusive = small, poorly fitted or top-dose-only effect; inactive = no such curve, though single readings can be large or run the other way; note: potency is the fitted concentration of half-maximal effect; the source files actives as falling curves though it sought activators and does not explain the sign; nearly all actives have a fitted effect of over 65% in size; many hits overshoot -100%
Target sequence (P80244 whole entry, looked up): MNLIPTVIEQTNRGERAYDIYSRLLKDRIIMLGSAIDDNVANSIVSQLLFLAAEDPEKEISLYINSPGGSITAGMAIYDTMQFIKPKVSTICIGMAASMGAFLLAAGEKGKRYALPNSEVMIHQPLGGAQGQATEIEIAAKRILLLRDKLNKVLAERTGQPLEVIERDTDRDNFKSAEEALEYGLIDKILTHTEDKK
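FRET quenching reversal measured ClpP activation: 10 microg/mL B. subtilis ClpP at pH 8 with the FRET-FV decapeptide, read at 430 nm after 320 nm excitation. The 20-min minus 0-min signal was scaled between DMSO/no-enzyme wells and ADEP (5.8 microM final).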
gsp antag – qHTS for Antagonists of gsp, the Etiologic Mutation Responsible for Fibrous Dysplasia/McCune-Albright Syndrome: qHTS; 340,000 compounds, 0.4% hits; Potency, µM (highest dose often 76.9 µM), for the others: top-dose activity change, negative = inhibition, hits mostly inhibitors; AID 624288, 2012; gsp-mutant cells, cAMP HTRF, 30 min; control for the full effect not named in the record; active = falling curve of any shape with a large fitted effect; inconclusive = falling curve, mostly with a smaller effect; inactive = flat or rising curve; cell line not stated here;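 note: intracellular cAMP measured with PDE inhibitor Ro 20-1724 present during compound exposure; potency is the fitted concentration of half-maximal effect; % is set by controls: 0 for no effect and ±100 for the full control effect; nearly all actives have a fitted effect of over 65% in size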
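HTRF cAMP read-out (cAMP-d2 plus anti-cAMP antibody-K in lysis buffer, 30 min RT). Before lysis, cells are exposed to compounds with […] for 30 min at 37C in DPBS containing Ca/Mg, BSA and Tween 20.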
TRPV1 potentiator – HTS Assay for Compounds that Act as Potentiators of the Vanilloid Receptor 1. potentiation, % at 8.33 µM. TRPV1-expressing cells, Fluo-8 calcium influx, capsaicin EC20 potentiation; host cell line not named in the record; control for the full effect not named in the record. AID 540277, 2011. Transient receptor potential cation channel subfamily V member 1 (Homo sapiens), Q8NER1. 320,000 compounds, 0.02% hits; active means potentiation above 80%; inconclusive means 30% to 80%; inactive means below 30%; note: 0% is about no effect
Target sequence (Q8NER1 whole entry, looked up): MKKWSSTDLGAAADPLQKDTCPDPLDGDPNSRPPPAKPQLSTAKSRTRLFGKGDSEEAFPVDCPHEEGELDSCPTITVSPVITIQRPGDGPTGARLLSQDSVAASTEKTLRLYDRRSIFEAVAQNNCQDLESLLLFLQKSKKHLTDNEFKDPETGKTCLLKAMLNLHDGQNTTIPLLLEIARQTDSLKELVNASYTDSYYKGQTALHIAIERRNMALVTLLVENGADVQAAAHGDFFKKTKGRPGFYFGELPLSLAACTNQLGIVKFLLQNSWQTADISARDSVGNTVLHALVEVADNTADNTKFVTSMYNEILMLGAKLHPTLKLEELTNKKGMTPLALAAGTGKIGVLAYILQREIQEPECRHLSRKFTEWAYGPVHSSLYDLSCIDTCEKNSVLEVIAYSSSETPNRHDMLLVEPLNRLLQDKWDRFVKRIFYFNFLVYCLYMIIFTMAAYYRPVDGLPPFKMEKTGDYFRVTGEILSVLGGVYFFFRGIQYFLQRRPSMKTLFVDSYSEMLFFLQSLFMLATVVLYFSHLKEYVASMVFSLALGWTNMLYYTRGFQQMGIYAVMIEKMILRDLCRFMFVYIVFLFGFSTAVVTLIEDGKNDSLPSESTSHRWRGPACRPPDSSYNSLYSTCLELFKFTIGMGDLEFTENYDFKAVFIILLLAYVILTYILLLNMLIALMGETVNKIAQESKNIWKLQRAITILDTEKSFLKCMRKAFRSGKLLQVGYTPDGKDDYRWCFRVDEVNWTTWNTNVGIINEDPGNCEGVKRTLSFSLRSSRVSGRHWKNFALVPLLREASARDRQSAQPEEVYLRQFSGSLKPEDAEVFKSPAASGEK
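TRPV1-expressing cells were cultured overnight at 35.5C and loaded with Fluo-8 calcium dye for 40 to 90 min at room temperature. After a 10 s baseline, compound was added and calcium influx was read kinetically for 3 min (ex 480/em 520 nm).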
gsp ag – qHTS for Agonist of gsp, the Etiologic Mutation Responsible for Fibrous Dysplasia/McCune-Albright Syndrome: qHTS; 340,000 compounds, 0.13% hits; gsp mutant cells, cAMP HTRF, 30 min; control for the full effect not named in the record; Potency, µM (highest dose often 76.9 µM), for the others: top-dose activation (cAMP increase), most hits filed as activators; active = well fitted activation curve with a large enough effect; inconclusive = small, poorly fitted or top-dose-only effect, or another doubt; inactive = no such curve, though single readings can be large or run the other way; cell line not stated here;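 note: phosphodiesterase inhibitor Ro 20-1724 added with compounds to block cAMP breakdown; potency is the fitted concentration of half-maximal effect; nearly all actives have a fitted effect of over 60% in size; about a fifth of the inactives were tested at one dose only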
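Cells stably selected in G418 were plated at 2000/well, grown 16-24 hr, then given compounds in DMSO with the PDE inhibitor […] (300 uM solution added) for 30 min at 37C; cAMP was read by HTRF.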
Sfp inh – qHTS Assay for Inhibitors of Bacillus subtilis Sfp phosphopantetheinyl transferase (PPTase); 4'-phosphopantetheinyl transferase ffp (Bacillus subtilis), Q9F4F7; Biochemical Sfp PPTase activity, qHTS; Potency, µM, for the others: max response, negative = inhibition, most hits filed as inhibitors; 310,000 compounds, 3.5% hits; active = well fitted inhibition curve with a large enough effect; inconclusive = small, poorly fitted or top-dose-only effect, or another doubt; inactive = no such curve, though single readings can be large or run the other way;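 note: the enzyme is Sfp with the accession as filed and its product quenches rhodamine fluorescence; potency is the fitted concentration of half-maximal effect; 0% = enzyme reaction without inhibitor and -100% = no enzyme wells; top concentration of the series not given in the record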
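Buffer: 50 mM Hepes-Na pH 7.6, 10 mM MgCl2, 0.01% Nonidet P-40, 0.01% BSA. Enzyme 15 nM, pre-exposed to compound 15 min; substrates then added and fluorescence change tracked over 30 min.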
CtBP-E1A inh – qHTS Assay for Inhibitors of the CtBP/E1A Interaction; CtBP / adenovirus E1A interaction (AlphaScreen); AlphaScreen GST-E1A/His-CtBP binding, 1536-well; stronger effect = lower value; control for the full effect not named in the record; activity change, % (test concentration not listed); 340,000 compounds, 0.49% hits; in the data active means activity change below about -65%; inconclusive means about -30% to -65%; inactive means above about -30%; note: % is set by controls: 0 for no effect and ±100 for the full control effect
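Protein mix (5X: 125 nM each GST-E1A, His-CtBP) was incubated with pinned compound 2 h at 37 deg C in dark, in 50 mM Tris pH 8.0 buffer with 300 mM NaCl. Glutathione donor and nickel acceptor beads followed; AlphaScreen signal read after 1 h.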
Menin MLL FP FL – qHTS Assay for Inhibitors Targeting the Menin-MLL Interaction in MLL Related Leukemias: Competition With Fluorescein Labeled MLL-derived Peptide; Fluorescence polarization, fluorescein-MLL peptide displacement from menin; FP activity change, % at 61.4 µM; 290,000 tested, under 10 active; inconclusive = falling polarisation curve, or a change in total fluorescence; inactive = total fluorescence flat and polarisation flat or rising; no compound was filed as active; the % refers to the polarisation; negative = inhibition;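 note: % of control where 0% means no effect; inhibitors lower the polarisation; unlabelled MLL peptide was the positive control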
Numbers without * were called inactive; u = inconclusive; x = no result given; & = joins results of further samples; [ ] = dose if it differs, or a comment.

SMILES | ClpP mod | gsp antag | TRPV1 potentiator | gsp ag | Sfp inh | CtBP-E1A inh | Menin MLL FP FL
O=[N+]([O-])c1cccc(NC(=S)N2CCN(c3ccccn3)CC2)c1 | 1.1% | -10% | 4 | 10% | 14% | -5 | x
COC(=O)Cn1c(-c2ccc(OC)cc2)c(-c2ccc(OC)cc2)nnc1=O | 0.4% | -9% | -36 | -49%[inhibitor] | 50µM* | x | 6.0
O=C(NCc1cccnc1)C(=O)NCC1OCCN1S(=O)(=O)c1cc(F)ccc1F (stereo not drawn) | x | 7% | 2 | -16% | -29% | 5 | 1.2
CC(OC(=O)c1ccc(F)cc1)C(=O)Nc1nc(-c2cccc([N+](=O)[O-])c2)cs1 (stereo not drawn) | -2.9% | -13% | u | 4% | 0% | -18 | 2.8
CCCn1nnc(NC(=O)COc2ccccc2Cl)n1 | -0.7% | 12% | -14 | -44%[inhibitor] | -7% | -9 | -3.7
CC(C)(C)c1ccc(-n2ncc3c2CCCC3NC(=O)CN2CCCC2=O)cc1 (stereo not drawn) | 1.6% | 3% | -5 | 13%[15.4 µM] | 2% | -5 | -0.3
O=C1NC(c2ccc(Br)cc2)=N/C1=C/c1ccco1 | 0.6% | 1% | 3 | -15% | u | -23 | u
CCN(CC)CCNC(=O)c1cccc(NC(=O)C(=O)c2cc(Br)ccc2NC(C)=O)c1 | -0.9% | -11% | -1 | 10%[15.4 µM] | 8% | 0 | -6.7
C=CCc1c(C)nc(-c2ccccc2)nc1Nc1ccc(O)cc1 | -2.9% | 16% | -7 | -21% | -15% | -9 | 1.8
COc1ccc(CCn2c(N)c(C#N)c3nc4ccccc4nc32)cc1OC | u | -8% | 11 | 1% | -2% | -69* | 2.7
CN1CCN(S(=O)(=O)c2cccc(C(=O)Nc3sc4c(c3C(N)=O)CCCC4)c2)CC1 | -0.3% | -11% | -16 | 19% | 56µM* | u | -0.3
CCCS(=O)(=O)N1CCN(C(=O)c2cccc(OC)c2)CC1 | 0.4% | -14% | 2 | 3% | -1% | 9 | 0.8
CN(c1ccccc1)S(=O)(=O)c1ccccc1Br | -0.2%&-0.6% | -6% | -8 | x | x | 12 | x
Cc1ccc(NC(=O)CCN2CCc3ccccc3C2)cc1 | -0.1% | 3% | -30 | -11% | 7% | 0 | 0.3
CC12CCCc3c(O)cc(=O)n(c31)-c1ccccc12 (stereo not drawn) | 3.2% | -4% | 1 | 5% | 2% | 29 | -1.3
CC(C)c1ccc(NC(=O)c2cccc(NC3=NC4CS(=O)(=O)CC4S3)c2)cc1 (stereo not drawn) | 0.9% | 5% | 2 | 4% | 10% | 1 | -0.5
O=C(O)/C(=C/c1cccnc1)NC(=O)c1ccccc1 | -1.8% | 8% | -4 | 18%[15.4 µM] | 16% | 6 | 1.5
CCOC(=O)c1cc(-c2ccc(N3CCOCC3)cc2)nn1-c1ccccc1 | -8.5% | u | 4 | -16% | -10% | 4 | -4.1
C/C(N)=C(/C#N)C(=O)CSc1nc2scc(-c3ccccc3)c2c(=O)n1C | x | u | 21 | -5%[15.4 µM] | -6% | -1 | 21
CS(=O)(=O)N1CCN(C(=O)c2csc3ccccc23)CC1 | 1.7% | 11% | 5 | -29% | 0% | 3 | 0.3
O=C(c1ccc(Br)cc1)N1CCCC(c2nc(-c3cccs3)no2)C1 (stereo not drawn) | 0.0% | -7% | -2 | -9% | 1% | 10 | 0.5
O=C1OC(c2ccc(Cl)cc2)=C/C1=C/c1cccnc1 | -3.5% | 14% | -9 | -19%[15.4 µM] | -1% | 9 | 3.2
COc1ccc2c(c1)n([O-])c1c([n+]2=O)CCC1 | 3.6% | -10% | 1 | 27% | -12% | 0 | 0.2
COc1ccc(CC(=O)N2CCC(Nc3nc4ccccc4n3Cc3ccc(F)cc3)CC2)cc1 | 2.3% | -13% | 6 | 6% | 4% | -11 | 3.1
Cc1ccc(S(=O)(=O)N2CCCC2CNC(=O)C(=O)NCc2ccc3c(c2)OCO3)cc1 (stereo not drawn) | -1.8% | x | x | -25% | x | -3 | x
CCC(CC)C(=O)N1N=C(c2ccc(NS(C)(=O)=O)cc2)CC1c1ccc(C)cc1 (stereo not drawn) | 3.7% | u | -9 | -8% | 4% | x | 2.1
CC(=O)N1c2ccc(S(=O)(=O)N3CCC(C(=O)NCc4ccc(Cl)cc4)CC3)cc2CC1C (stereo not drawn) | -8.9% | u | 8 | 1% | 1% | -19 | x
COc1ccc(OC)c(S(=O)(=O)N2CCN(C(=O)NC3CCCCC3)CC2)c1 | 1.0% | -4% | -2 | 5% | x | 13 | x
CCCOc1ccc(C(=O)NC(=S)N2CCN(c3ncc4c(=O)c(C(=O)O)cn(CC)c4n3)CC2)cc1 | -7.9% | x | x | -16% | x | -1 | x
CCN(CC)S(=O)(=O)c1ccc2c(c1)oc(=O)n2CC(=O)NC1CCCCC1 | -1.2% | 6% | -2 | u | 11% | 8 | 2.1
CCOC(=O)C(C)Sc1nc2c(cnn2-c2ccc(C)cc2)c(=O)[nH]1 (stereo not drawn) | 3.0% | 4% | 4 | 14% | 10% | -2 | -1.4
CCN(CC)c1ccc(/C=N/NC(=O)OC(C)(C)C)cc1 | x | 4% | -1 | -6%[15.4 µM] | -16% | -9 | 2.7
CCC(=O)N1CCc2cc(S(=O)(=O)CCC(=O)NCCc3ccc(OC)c(OC)c3)ccc21 | 0.6% | 7% | -2 | 4% | 4% | -1 | 8.1
O=C(COC(=O)c1cc(=O)[nH]c2ccccc12)Nc1cccc(S(=O)(=O)N2CCOCC2)c1 | -7.9% | -3% | -6 | -1% | 1% | -19 | 0.6
C=CCN1c2ccccc2[C@]23C[C@@H](C(=O)OC)N(C(=O)CC(C)C)C2=NC(C(=O)OC)=C(C(=O)OC)[C@H]13 | -0.3% | -14% | u | x | 0%&8% | -15 | -4.1[11.7 µM]
CCCNC(=S)NC1CC2CCCC(C1)N2Cc1ccccc1OC (stereo not drawn) | 1.3% | x | x | -1% | x | 1 | x
O=c1ccn(-c2cccc(C(F)(F)F)c2)nc1-c1ccn(-c2ccccc2)n1 | -2.4% | -10% | x | u | -1% | -16 | 6.1
COc1cc(OC)cc(C(=O)N[C@H](C(=O)NCc2ccccc2)C(C)C)c1 | x | 6% | 4 | 5% | 7% | 0 | -1.3
CCCCC(=O)Nc1ncc([N+](=O)[O-])s1 | x | x | -4 | 2%[15.4 µM] | 13% | 10 | 0.9
CCN(CC)S(=O)(=O)c1cccc(S(=O)(=O)c2cccc(S(=O)(=O)N(CC)CC)c2)c1 | -2.2% | u | 16 | -15% | 18% | 8 | 4.1
O=C(NCC1CCCO1)C(c1ccc(F)cc1)N(Cc1ccc2c(c1)OCO2)C(=O)c1ccc(CN2CCOCC2)o1 (stereo not drawn) | x | -5% | 4 | 2% | 5% | -2 | 0.6
COc1cccc(CNC(=O)CCC2CCCN(C(=O)CCn3cncn3)C2)c1 (stereo not drawn) | x | -1% | 8 | 6%[15.4 µM] | 20% | 9 | 1.4
NC(=S)Nc1nc2ccccc2[nH]c1=O | x | x | -4 | x | u | x | -2.7
CCOC(=O)N1CCN(C(=O)CCN2C(=O)/C(=C\c3cccc(OC)c3)SC2=S)CC1 | x | 5% | -3 | -7% | 2% | 1 | x
CCn1cc(C(=O)Nc2ccccc2C(=O)OC)c(=O)c2ccc(C)nc21 | x | x | -16 | x | 6% | x | 0.0
COc1ccc(/C=N/NC(=O)c2[nH]c3ccc(Br)cc3c2-c2ccccc2)c(C(=O)O)c1OC | x | -7% | 20 | -2%[15.4 µM] | -4% | u | 1.1
Cc1cc(C)c(C(=O)c2ccc(C(=O)NC(C)(C)C)cc2)c(C)c1 | -1.1% | 11% | -18 | 36% | 20% | 8 | 3.2
O=C(COc1ccc([N+](=O)[O-])cc1)NNC(=S)NC(=O)c1ccc(Br)cc1 | x | x | -8 | 6%[15.4 µM] | 45µM* | 0 | 2.0
O=C(NCc1ccccc1)C1CCN(C(=O)NCc2ccccc2)CC1 | -2.4% | 0% | 3 | -22% | 6% | -5 | 2.7
O=C(CC1CCCCC1)Nc1c2c(nn1-c1ccc(F)cc1)CS(=O)(=O)C2 | -1.3% | 1% | -11 | -28% | 23% | -2 | 1.1
CN(C(=O)COn1nnc2ccc(Cl)cc21)C1CCS(=O)(=O)C1 (stereo not drawn) | -0.8% | 1% | x | 2% | x | -2 | x
Cn1c(SCCC#N)nnc1-c1ccccc1F | -3.7% | 10% | u | 10%[15.4 µM] | 11% | -1 | 3.1
Nc1nnc(SCC(=O)NNC(=O)c2ccc(Cl)cc2)s1 | -1.2% | -13% | 10 | -4% | x | -9 | x
O=C(NCc1nnc(SCC(=O)N2CCOCC2)o1)c1ccccc1 | -2.0% | x | x | 21% | x | -29 | x
CCc1ccc(C(=O)/C=C2\Sc3ccccc3NC2=O)cc1 | -3.9% | -7% | 18 | -27% | 7% | -10 | 1.8
C=CCn1c(SCc2n[nH]c(=S)n2-c2ccccc2)nnc1-c1ccccc1 | 0.4% | -14% | 14 | -1% | -2% | x | -1.2
Cc1ccc(S(=O)(=O)Oc2ccc(/C=C3\C(=N)N4N=C(S(C)(=O)=O)SC4=NC3=O)cc2)cc1 | -2.0% | -11% | -4 | 4% | -19% | x | x
COc1ccc(CCNC(=O)N[C@@H](Cc2ccccc2)C(=O)O)cc1 | -0.3% | 3% | u | 29% | -5% | x | -11
CCn1c(SCc2ccc(C#N)cc2)nnc1-c1cccc(Cl)c1 | -1.3% | u | 2 | -2% | 14% | 6 | 2.2
